From PubChem
TRPML1 agonist: activates the human TRPML1 channel; 410,000 tested, 0.12% active; activation, % (concentration not given with the values); TRPML1-expressing cells, Ca2+ dye fluorescence, FDSS; host cell line not named in the record; reference of the full effect not given here; in the data active = activation above about 50%; inconclusive = about 30% to 50%; inactive = below about 30%; also: 0% is about no effect; the text of the record puts the active cut at 80%
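TRPML1-DL cells, Tet-induced overnight (~16 h, 37 degrees C), loaded 45-90 min at room temperature with Ca8 no-wash calcium dye plus quencher. FDSS fluorescence: 10 s baseline, compound pin-transfer, 110 s agonist read, then EC80 54-4 (4uM final) and 110 s antagonist read.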
TRPV1 PAM: human TRPV1 potentiation; Q8NER1; potentiation, % at 8.33 µM; TRPV1-expressing cells, Fluo-8 calcium influx, capsaicin EC20 potentiation; host cell line not named in the record; control for the full effect not named in the record; AID 540277; 320,000 tested, 0.02% active; active means potentiation above 80%; inconclusive means 30% to 80%; inactive means below 30%; also: 0% is about no effect
Target sequence (Q8NER1 whole entry, looked up): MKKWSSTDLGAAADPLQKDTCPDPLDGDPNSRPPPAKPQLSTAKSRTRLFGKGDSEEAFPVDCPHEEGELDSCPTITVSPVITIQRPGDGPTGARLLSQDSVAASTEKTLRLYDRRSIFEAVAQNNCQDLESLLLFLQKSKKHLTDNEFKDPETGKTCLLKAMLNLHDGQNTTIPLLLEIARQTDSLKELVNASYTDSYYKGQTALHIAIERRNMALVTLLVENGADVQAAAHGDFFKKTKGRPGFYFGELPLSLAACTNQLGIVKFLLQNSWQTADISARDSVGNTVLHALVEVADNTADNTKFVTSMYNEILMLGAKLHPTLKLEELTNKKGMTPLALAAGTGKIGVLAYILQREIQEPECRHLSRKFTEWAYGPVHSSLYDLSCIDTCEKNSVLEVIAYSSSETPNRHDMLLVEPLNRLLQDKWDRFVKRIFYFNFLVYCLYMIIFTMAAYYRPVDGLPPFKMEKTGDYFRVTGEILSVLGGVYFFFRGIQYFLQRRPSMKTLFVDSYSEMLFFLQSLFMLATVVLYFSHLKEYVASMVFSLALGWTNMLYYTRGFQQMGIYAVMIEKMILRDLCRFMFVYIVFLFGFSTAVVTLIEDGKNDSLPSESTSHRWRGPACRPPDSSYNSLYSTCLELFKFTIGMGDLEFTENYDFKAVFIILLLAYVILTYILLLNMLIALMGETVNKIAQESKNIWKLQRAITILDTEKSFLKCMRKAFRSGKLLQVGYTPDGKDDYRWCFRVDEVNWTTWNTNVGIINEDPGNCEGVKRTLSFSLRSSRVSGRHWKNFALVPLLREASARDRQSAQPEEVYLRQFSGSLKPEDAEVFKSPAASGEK
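Cells expressing TRPV1 were dye-loaded with Fluo-8 and read kinetically: 10 s baseline, 3 min after compound (agonist portion), then 2 min after EC20 capsaicin (allosteric enhancer portion). Calcium-bound dye fluorescence at 480/520 nm.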
Sfp PPTase inh: inhibitors of Bacillus subtilis Sfp phosphopantetheinyl transferase | Potency, µM, without a hit: max response, negative = inhibition, most hits filed as inhibitors | Biochemical Sfp PPTase activity, qHTS | AID 1490 | 310,000 tested, 3.5% active | Q9F4F7; active = well fitted inhibition curve with a large enough effect; inconclusive = small, poorly fitted or top-dose-only effect, or another doubt; inactive = no such curve, though single readings can be large or run the other way;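 also: the enzyme is Sfp with the accession as filed and its product quenches rhodamine fluorescence; potency is read from the fitted curve at half-maximal effect; 0% = enzyme reaction without inhibitor and -100% = no enzyme wells; top concentration of the series not given in the record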
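Compounds were incubated with enzyme (final 15 nM) for 15 min at room temperature before substrate addition started the reaction. Fluorescence at 525 nm excitation, 598 nm emission was recorded immediately and after 30 minutes.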
Menin-MLL FL inh: inhibitors of human menin-MLL interaction, wild-type MLL peptide; Fluorescence polarization, fluorescein-MLL peptide displacement from menin; 290,000 tested, under 10 active; FP activity change, % at 61.4 µM; AID 1766; inconclusive = falling polarisation curve, or a change in total fluorescence; inactive = total fluorescence flat and polarisation flat or rising; no compound was filed as active; the % refers to the polarisation; negative = inhibition;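 also: % of control where 0% means no effect; inhibitors lower the polarisation; unlabelled MLL peptide was the positive control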
PINK1 expr mod: modulators of PINK1 expression; PINK1 immunofluorescence, high-content cytometry, 24 h; Potency, µM (doses to about 76.6 µM), inactives show at the top dose activation (PINK1 increase), hits mostly activators; 410,000 tested, 0.2% active; AID 624263; active = well fitted activation curve with a large enough effect; inconclusive = small, poorly fitted or top-dose-only effect; inactive = flat fitted curve, though single readings scatter; cell line not stated here;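 also: potency is read from the fitted curve at half-maximal effect; % of control where 0% means no effect; nearly all actives have a fitted effect of over 65% in size; a mitochondrial uncoupler was the plate control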
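Fluorescence from anti-PINK1 antibody, together with nuclear and cell stains, was scanned on a laser-scanning cytometer. Before staining, stable-line cells were incubated 24 hours with compounds at 5 concentrations; primary antibody 12 h at 10 degrees C.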
TRPML1 inh: human mucolipin-1 channel inhibition | Q9GZU1 | TRPML1-inducible cells, Ca2+ dye fluorescence, FDSS; stronger effect = lower value; inhibition of EC80 agonist-evoked calcium signal | activity change, negative = inhibition, % (test concentration not listed) | 390,000 tested, 0.02% active; in the data active means activity change below about -50%; inconclusive means about -30% to -50%; inactive means above about -30%;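 also: stimulus is agonist 54-4 at its EC80 concentration; % is scaled to controls: 0 for no effect and ±100 for the full control effect; compound concentration not given in the record; the text of the record puts the active cut at -80%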
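TRPML1-DL cells, Tet-induced overnight (~16 h, 37 °C) at 1,500 cells/well, were loaded with Ca8 no-wash dye plus quencher for 45-90 min at room temperature. Compounds were pinned during FDSS kinetic reading; agonist 54-4 at EC80 (4 uM final) then added.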
ClpP mod: qHTS Assay for Activators of ClpP | AID 651965, 2013 | ATP-dependent Clp protease proteolytic subunit (Bacillus subtilis (strain 168)), P80244 | Potency, µM (doses to about 57.5 µM), for the others: at the highest dose activity change, negative = active | 340,000 tested, 1.9% active | purified B. subtilis ClpP, FRET peptide cleavage, 20 min; active = well fitted falling curve with a large enough effect; inconclusive = small, poorly fitted or top-dose-only effect; inactive = no such curve, though single readings can be large or run the other way; also: potency is read from the fitted curve at half-maximal effect; the source files actives as falling curves though it sought activators and does not explain the sign; nearly all actives have a fitted effect of over 65% in size; many hits overshoot -100%
Target sequence (P80244 whole entry, looked up): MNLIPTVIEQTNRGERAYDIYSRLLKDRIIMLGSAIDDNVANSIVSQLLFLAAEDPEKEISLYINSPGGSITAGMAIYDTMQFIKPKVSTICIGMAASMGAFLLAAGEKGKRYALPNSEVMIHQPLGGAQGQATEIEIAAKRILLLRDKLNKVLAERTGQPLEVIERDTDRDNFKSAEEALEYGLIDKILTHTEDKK
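Buffer: 100 mM Tris/HCl pH8, 100 mM KCl, 0.05% low protease BSA, 2.5% glycerol, 0.01% Tween-20. ClpP 10 microg/mL final; 20 min RT; delta FRET normalized to ADEP and DMSO controls.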
Active calls of the source: *; u = inconclusive; x = no result given; & = joins results of further samples; [ ] = another dose, or the depositor's remark.

Each structure is followed by: TRPML1 agonist | TRPV1 PAM | Sfp PPTase inh | Menin-MLL FL inh | PINK1 expr mod | TRPML1 inh | ClpP mod
> CCCCOC(=O)Nc1ccc(S(=O)(=O)Nc2ccc([N+](=O)[O-])cc2)cc1
 : 1.1 | -11 | 12% | 2.0 | 5.4% | 11 | 1.6%
> COc1ccc(NC(=O)CSc2ccc3c4c(cccc24)C(=O)c2ccccc2-3)cc1
 : 23 | x | 40µM* | u | u | -13 | 0.2%
> Cc1ccc(N2CCN(c3cc(C)nc4c5c(C)cc(C)nc5nn34)CC2)cc1
 : x | -9 | 17% | 1.2 | x | x | x
> CC1CCN(CCCn2c(=S)[nH]c3ccc(N4CCOCC4)cc3c2=O)CC1
 : -0.7 | 5 | 9% | 0.9 | 36%[38.3 µM] | 5 | 3.0%
> CCc1ccc(/C=C/c2c([N+](=O)[O-])c(=O)n(C)c(=O)n2C)cc1
 : 2.9 | 10 | -8% | -0.7 | -1.4% | -7 | -1.9%
> O=C1CC(c2cccc(O)c2)c2c(nc(SCc3ccccc3F)[nH]c2=O)N1 (configuration not stated)
 : 12 | x | x | x | 1.1% | -1 | 0.6%
> O=C(CNS(=O)(=O)c1ccccc1Br)OCC(=O)N1CCc2ccccc21
 : 1.6 | 3 | 9% | 0.0 | -3.8% | 26 | -1.4%
> CC(=O)Nc1nnc(S(=O)(=O)N2CCN(c3ccc(Cl)cc3[N+](=O)[O-])CC2)s1
 : -0.5 | 3 | 11% | x | 3.6% | 5 | -1.8%
> O=C(NC1CCCC1)C(c1c(F)cccc1Cl)N(C(=O)c1csnn1)C1CC1 (configuration not stated)
 : -0.6 | 15 | 1% | 0.8 | -2.2% | -10 | x
> O=C(CN1C(=O)C2(OCCO2)c2ccccc21)c1ccc(F)cc1
 : -0.5 | 12 | 6% | -0.6 | -0.7%[38.3 µM] | 53 | -2.4%
> Cn1nc(-c2ccccc2)cc1NC(=O)[C@@H]1O[C@H](CO)[C@H](O)[C@H](O)[C@H]1O
 : 0.1 | x | x | x | 3.3% | x | -3.4%
> Cc1ccccc1-c1csc(C(C)(O)c2cccnc2)n1 (configuration not stated)
 : -0.9 | x | x | x | 0.1% | x | -3.3%
> Cc1nnc(NC(=O)CCC(=O)N2CCN(CCOc3cccc4ccccc34)CC2)s1
 : 0.2 | -4 | 9% | 4.4 | 7.2% | 43 | -0.4%
> Cc1cc(=O)[nH]c(SCC(=O)Nc2c(C)n(C)n(-c3ccccc3)c2=O)c1C#N
 : 0.9 | 5 | x | x | -1.8% | -2 | -0.8%
> CN1C(=S)SC(N(O)C=C2C=CC(=O)C=C2)C1(C)C (configuration not stated)
 : 0.3 | 4 | 12% | 2.1 | 2.9% | 1 | 1.0%
> Cc1nn(CC(=O)NCC2CCCO2)c(=O)c2ccccc12 (configuration not stated)
 : 0.2 | 17 | 8% | -1.1 | 0.0% | -2 | -1.8%
> O=C(NCCS(=O)(=O)N1CCN(c2cccc(Cl)c2)CC1)c1cc(=O)c2ccccc2o1
 : 0.0&2.5 | 3 | 15% | -1.2 | -0.1%&-0.7% | 7&-8 | 1.5%&0.5%
> N/C(Cc1cccc2ccccc12)=N\OC(=O)c1cccs1
 : 0.5 | -5 | -1% | -6.6 | -0.5% | 30 | 0.9%
> COC(=O)c1c(-c2ccccc2)nn(-c2ccccc2)c1C(=O)OC
 : -0.9 | -4 | -3% | 3.8 | 1.3% | -3 | -1.1%
> COc1ccccc1CNc1cc(-c2ccccc2)ccc1OC
 : -0.4 | 6 | -5% | 1.3 | 3.3% | 17 | 25µM*
> Cc1ccc(-c2noc(C3CCN(S(C)(=O)=O)CC3)n2)o1
 : -0.6 | 2 | 5% | -1.4 | 11%[38.3 µM] | -5 | 0.2%
> COc1ccc(-c2csc(C(C)(O)c3cccnc3)n2)cn1 (configuration not stated)
 : 0.3 | x | x | x | 0.0% | x | -0.4%
> CC(=O)c1cccc(Oc2ncccn2)c1
 : -0.4 | 0 | 0% | -1.3 | 1.5% | 5 | -1.6%
> O=C1NC(=Nc2ccccc2)SC1Cc1cccc(Cl)c1Cl (configuration not stated)
 : 1.5 | -5 | 13% | -0.6 | -0.1% | -16 | -4.5%
> CCCOc1ccc(C2c3c(oc4ccccc4c3=O)C(=O)N2CCN(CC)CC)cc1OC (configuration not stated)
 : -0.8 | -3 | 5% | 0.1 | 2.2% | -11 | -2.7%
> Cc1c(NS(=O)(=O)c2cccc(C(=O)NCc3ccc(Cl)cc3)c2)c(=O)n(-c2ccccc2)n1C
 : 0.3 | -6 | 19% | 2.8 | -0.7% | 2 | -3.7%
> COC(=O)c1ccsc1NC(=O)CCS(=O)(=O)c1ccc(Cl)cc1
 : 0.7 | 14 | x | x | 4.7% | -3 | -4.4%
> O=C(C1CCN(S(=O)(=O)Cc2ccccc2)CC1)N1CCN(c2ncccn2)CC1
 : -0.9 | 14 | 12% | -0.2 | -1.5% | 9 | -1.8%
> CCOC(=O)c1c(C)[nH]c(C)c1S(=O)(=O)N1CCC(C(=O)Nc2ccccc2CC)CC1
 : -0.4 | x | x | x | -0.6% | -1 | -1.0%
> Cc1cc(C(=O)N/N=C/C=C/c2ccc(Br)cc2)n[nH]1
 : 0.0 | 6 | 17% | 4.3 | 3.6% | 7 | 3.3%
> COc1ccc(N2C(=O)CN(Cc3cc(OC)c(OC)c(OC)c3)C2=S)cc1
 : -0.5 | 4 | 10% | -0.8 | 0.4% | 0 | -0.2%
> O=C(Nc1ccccc1)N(CCN1CCOCC1)Cc1cccc(Cl)c1
 : 0.6 | 30 | 13% | 6.5 | 1.7%[38.3 µM] | -10 | 0.3%
> COc1cccc(C2=Nc3cccc4cccc(c34)N2)c1
 : -0.5 | 5 | -17% | 3.4 | 1.9% | -20 | 0.3%
> CCOC(=O)c1ccc(NC(=O)c2c(NC(=O)CCC(=O)O)sc3c2CCCCC3)cc1
 : -1.0 | 16 | 11µM* | u | 1.1% | -7 | x
> CCCCc1cc(=O)oc2cc(OCC(=O)NCc3ccccn3)c(Cl)cc12
 : 0.7 | 11 | 20% | x | -1.5% | -8 | -8.8%
> Cc1ccc(C(=O)Nc2cc(S(=O)(=O)N3CCOCC3)ccc2N2CCCC2)cc1
 : -0.5 | 5 | x | x | 0.9% | -6 | 2.0%
> COc1ccccc1C1CC(c2cccs2)=NN1C(=O)CCC(=O)O (configuration not stated)
 : -0.4 | 5 | 37%[activator] | 8.7 | 0.4% | -4 | x
> Cc1noc(C)c1CSCC(=O)N(CCC(C)C)c1c(N)n(Cc2ccccc2)c(=O)[nH]c1=O
 : 1.2 | 2 | 4% | x | -0.2% | 7 | -0.5%
> COc1ccc(CN(CCCN)c2ccc(Br)cn2)cc1
 : 0.8 | x | x | x | 1.9% | x | -5.2%
> CN(C)/C=N/c1cc(=O)n(C)c(=O)n1CC1CC1
 : -0.5 | 3 | 9%&3% | -2.3&2.2 | 0.5% | 44 | 0.5%
> CCc1ccc(-n2c(=O)c3sc4ccccc4c3n(CC(=O)NC3CCCCC3)c2=O)cc1
 : -0.5 | x | x | x | 2.1% | -8 | u
> Nc1nc2c3ccccc3nc(Cc3ccccc3)n2n1
 : 0.1 | 3 | -7% | 0.9 | -1.6%[38.3 µM] | -8 | -27%
> CCN=C(Nc1ccc2c(c1)OCO2)SC1CC(=O)N(c2ccc(OC)cc2)C1=O (configuration not stated)
 : 0.7 | -11 | -6% | 2.6 | -0.7% | 0 | 0.0%
> CN(C)c1ccc(-c2ccnc3c2CC(C)(C(=O)NCCc2ccccc2)O3)cc1 (configuration not stated)
 : -0.9 | x | x | x | 0.6% | x | 5.0%
> Cc1ccc(-c2nc3ccccn3c2Nc2ccc3c(c2)OCCO3)s1
 : 3.0 | x | x | x | 1.7% | 8 | 3.9%
> COc1ccccc1C1=NN(C2=NN=C(N)Cc3ncnn32)C(O)(C(F)(F)F)C1 (configuration not stated)
 : 0.9 | -3 | 12% | -5.0 | 5.4% | -26 | 4.1%
> O=C(CSc1n[nH]c(=O)[nH]c1=O)c1ccccc1[N+](=O)[O-]
 : x | -9 | -28% | 6.1 | 1.3% | x | -0.1%
> Cc1cc(C(=O)Nc2ccc(N3CCOCC3)cc2)c2ccccc2n1
 : -0.6 | u | 9% | -0.3 | 0.1% | -5 | -0.2%
> COc1ccc(/C=C/C(=O)OCC(=O)NC2CCCC2)cc1
 : 0.1 | 9 | x | x | -1.8% | 2 | -6.2%
> CCOC(=O)c1c(CS(=O)(=O)c2ccccc2)n(C)c2cc(Br)c(O)c(CN(C)C)c12
 : 0.4 | -12 | 5% | 3.3 | -1.3% | -12 | x

More structures follow.
Each structure is followed by: TRPML1 agonist | TRPV1 PAM | Sfp PPTase inh | Menin-MLL FL inh | PINK1 expr mod | TRPML1 inh | ClpP mod
> O=c1cc(N2CCCCC2)c(-c2ccccc2)nn1Cc1ccccc1Cl
 : 1.3 | x | u | 2.1 | 10% | -4 | -3.9%
> O=C(O)c1nc2nc(Cl)c(Cl)nc2[nH]1
 : -0.2 | -10 | 18% | 3.7 | 1.4% | 2 | -4.7%
> CCOC(=O)c1c(NC(=O)COc2ccc(Br)cc2)sc(C(C)=O)c1C
 : -0.7 | x | x | x | 0.9% | 5 | -1.4%
> O=C(NCCOc1ccccc1F)C1CC(=O)N(Cc2ccccc2)C1 (configuration not stated)
 : 0.6 | x | x | x | 0.7% | 3 | -2.3%
> CC1(C)CC(=O)C2=C(C1)NC(=S)C(C#N)C21CCCCC1 (configuration not stated)
 : 4.3 | -8 | 11µM* | 3.5 | 0.4% | 29 | 1.6%
> O=C(NC1CCCCC1)C(c1cccs1)N(Cc1cccs1)C(=O)c1ccco1 (configuration not stated)
 : 1.4 | 0 | -16% | 10 | 2.6%[38.3 µM] | -18 | -0.4%
> COc1ccc(Cn2nnnc2CN(Cc2cc3ccc(C)cc3[nH]c2=O)C2CCCC2)cc1
 : 1.1 | 9 | 7% | 4.8 | -1.6%[38.3 µM] | -9 | -5.8%
> COC(=O)C[C@@H]1C[C@H]2c3cc(N(C)C)ccc3O[C@H]2[C@H](CO)O1
 : -0.5 | x | x | x | 0.4% | -1 | -5.3%
> O=C(Nc1ccc(O)cc1C(=O)O)c1ccc(NC(=O)c2ccco2)cc1
 : 1.8 | -18 | x | x | 1.3% | 19 | 0.7%

Not a hit list; 4.4% or so of the library scored in one or more.
